# Source: PubChem (National Center for Advancing Translational Sciences (NCATS))
# NPR1 antag – blocks ANP-stimulated signaling of human Npr1 receptor; 76,000 tested, 1.6% active; Potency, µM (series often up to 46.3 µM), for inactives: top-dose activity change, negative = inhibition, usual class: inhibitors; HEK293 hNpr1 GloSensor cGMP, ANP-stimulated luminescence; P16066; active = well fitted inhibition curve with a large enough effect; inconclusive = small, poorly fitted or top-dose-only effect; inactive = no such curve, though single readings can be large or run the other way;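 also: nearly all actives have a fitted effect of over 60% in size; nearly all hits also lower the signal before the agonist is added; a reference antagonist and vehicle were the controls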
# Target sequence (P16066 whole entry, looked up): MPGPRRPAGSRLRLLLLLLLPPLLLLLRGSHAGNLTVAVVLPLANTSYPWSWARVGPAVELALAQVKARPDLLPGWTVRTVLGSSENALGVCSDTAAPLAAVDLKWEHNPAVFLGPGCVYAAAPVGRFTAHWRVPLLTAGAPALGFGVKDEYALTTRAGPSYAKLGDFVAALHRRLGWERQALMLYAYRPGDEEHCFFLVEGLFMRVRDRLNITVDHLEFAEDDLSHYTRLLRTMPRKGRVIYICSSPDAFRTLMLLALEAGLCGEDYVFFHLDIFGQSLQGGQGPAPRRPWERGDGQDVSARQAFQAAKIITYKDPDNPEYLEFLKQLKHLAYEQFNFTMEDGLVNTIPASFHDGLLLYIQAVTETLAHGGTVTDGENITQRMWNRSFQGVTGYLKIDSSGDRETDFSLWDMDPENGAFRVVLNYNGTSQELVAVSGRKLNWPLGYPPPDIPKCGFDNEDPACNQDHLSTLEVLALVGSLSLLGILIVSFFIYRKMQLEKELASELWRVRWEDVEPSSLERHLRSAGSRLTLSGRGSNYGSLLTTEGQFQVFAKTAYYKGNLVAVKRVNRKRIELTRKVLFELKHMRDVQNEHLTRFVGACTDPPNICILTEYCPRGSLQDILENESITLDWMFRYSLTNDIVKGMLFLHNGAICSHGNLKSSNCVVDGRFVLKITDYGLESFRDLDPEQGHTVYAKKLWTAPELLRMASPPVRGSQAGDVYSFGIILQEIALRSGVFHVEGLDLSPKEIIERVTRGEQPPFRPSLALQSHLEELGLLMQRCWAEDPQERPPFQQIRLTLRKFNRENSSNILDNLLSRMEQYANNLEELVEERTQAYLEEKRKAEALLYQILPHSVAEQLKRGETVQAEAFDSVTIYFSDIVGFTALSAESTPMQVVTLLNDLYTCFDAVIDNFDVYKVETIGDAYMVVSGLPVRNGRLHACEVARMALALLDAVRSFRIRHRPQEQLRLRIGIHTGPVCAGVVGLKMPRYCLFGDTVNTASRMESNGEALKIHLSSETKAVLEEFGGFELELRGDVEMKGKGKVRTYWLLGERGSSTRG
#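 HEK293 cells stably expressing human Npr1 and cGMP GloSensor pGS-40F, loaded 2 h with 2% GloSensor reagent, given compound 30 min at room temperature. Luminescence read before and 20 min after 0.1 nM hNppA.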
# * = called active by the depositor; ? = inconclusive; [ ] = another dose, or the depositor's remark. % is scaled to controls: 0 for no effect and ±100 for the full control effect; potency is read from the fitted curve at half-maximal effect. Some of the compounds tested; rates above refer to the full screens.
# Sample of the layout, 2 compounds:
SMILES,NPR1 antag
CCSCCNC(=O)c1c(C)noc1-c1ccc(C(C)(C)C)cc1,2%
O=C1OC2(CN(c3ccc4c(c3)OCO4)C2)CN1c1ccccc1,-13%[70.6 µM]

# The whole of this part, repeating the preview:
SMILES,NPR1 antag
CCSCCNC(=O)c1c(C)noc1-c1ccc(C(C)(C)C)cc1,2%
O=C1OC2(CN(c3ccc4c(c3)OCO4)C2)CN1c1ccccc1,-13%[70.6 µM]
Cc1c(CNC(=O)c2ccc(C3CCNC3)cc2)oc2ccccc12 (stereo not drawn),4%
COc1cccc(-c2noc(-c3ccc(-c4cn[nH]c4)nc3)n2)c1OC,1%
CC(C)CN1CCN(C(=O)C2CCN(C(=O)N3CC4CC(C3)[C@H]3CCCC(=O)N3C4)CC2)CC1 (stereo partly drawn),4%
O=C1NC2(CCCN([S+](=O)([O-])c3ccccc3)C2)Oc2ccccc21 (stereo not drawn),23%
O=[S+]([O-])(NCC1CN(Cc2ccc(O)cc2)CC12CN(c1ccccc1)C2)c1ccccc1 (stereo not drawn),-22%
COc1cc(OC)cc(C2NC(=O)NC(C)=C2C(=O)N2CCNC(=O)C2)c1 (stereo not drawn),5%
COc1cccc(C(=O)NCc2nnc3c(-c4nc(C)no4)cccn23)c1,-1%
CN(CC(=O)O)c1ncc(CN2CCn3nc(C(O)CO)cc3C2)cn1 (stereo not drawn),4%
COc1cccc2c1OCC(CN1CCC3(C1)CN(C)C(=O)O3)=C2 (stereo not drawn),4%
COc1ccc(CC(=O)N2CC[C@@H](CC(=O)O)[C@@H](CC3=NCCc4cc(OC)c(OC)cc43)C2)cc1,-2%
Cc1cccc(OCC2(CNS(=O)(=O)c3ccc(Cl)cc3)C[C@@H](O)[C@@H](O)C2)n1 (stereo partly drawn),2%[70.6 µM]
O=C(N1C[C@@H](CO)[C@H](c2ccncc2)C1)C1(c2ccccc2)CCCC1,-14%
COCCNC(=O)[C@@H]1C[C@H](Oc2cccnc2)CN1C(=O)C(C)C,-1%
CCn1ccc(C(=O)N2CC(C(=O)N(C)C)C3(CCOCC3)C2)n1 (stereo not drawn),4%
CS(=O)(=O)N1CCC(C2CCN(C(=O)COc3ccccc3)C2)CC1 (stereo not drawn),6%
COc1ccc(CNC[C@H]2Cn3cc(-c4ccccc4)nc3CO2)cc1,2%[70.6 µM]
CN1CCOc2c(C(=O)NCCc3ccccc3)cc(N3CCOCC3)cc21,0%[70.6 µM]
c1ccc(CNc2cc(-c3cc(N4CCCCC4)ncn3)c3cc[nH]c3n2)nc1,-2%
CCNC(=O)C12CCCC=C1N(C1CCCC1)C(=O)CC2 (stereo not drawn),-6%
COCC(=O)N1C[C@@H]2C[C@H]1C(=O)N(Cc1ccc(OC(F)(F)F)cc1)c1ccccc1O2,4%
COC(=O)[C@@H]1C[C@H](NC(=O)c2cc(OC)nc(OC)n2)CN1C,7%
OC1(CN2CCN(C/C=C/c3ccccc3)CC2)CNCCOC1 (stereo not drawn),2%
Cc1cc(C)cc(C(=O)NC2CCN(C(=O)c3cc4c(=O)[nH]c(C)cn4n3)CC2)c1,-17%
Fc1ccccc1Nc1nc(-c2ccccc2)no1,4.5µM*
CCn1cc(C(=O)N2C[C@@H](COC)[C@H](c3nc(C)no3)C2)cn1,-3%
Cc1cc(C)cc(N2CCC(N)C2=O)c1 (stereo not drawn),4%
COCCNC(=O)[C@H]1C[C@H](Oc2cccnc2)CN1C(=O)Nc1ccccc1,-5%
Cc1ccc(C2c3cc(OCc4nc(C(=O)NCC5CC5)co4)ccc3CCN2C(=O)C2CC2)cc1 (stereo not drawn),-23%
CC(=O)Nc1ccc(CN2CCCC3(CC(c4cccc(C(F)(F)F)c4)=NO3)C2)cc1 (stereo not drawn),-24%
Cc1cccc(NC(=O)CN2C(=O)NC3(CCC(C(C)(C)C)CC3)C2=O)c1C (stereo not drawn),1%
C=CCNc1nc(C2CC2)nc2c1CCN(C(=O)c1cscn1)CC2,-3%
CC(C)(N)c1cn(C2CCN(Cc3cccn3-c3ncccn3)CC2)nn1,-6%
Cc1nn(CC(=O)NCC2CCCO2)c(=O)c2nc(-c3ccccc3)sc12 (stereo not drawn),5%
O=C1CCN(C(=O)Cc2cccc(F)c2)CCCC(c2nc(-c3cccnc3)no2)CCN1 (stereo not drawn),9%
COc1ccc(-n2nc(C)c([C@@H]3C=C[C@@H](NCc4ccc(N(C)C)cc4)C3)c2C)cc1,?
COCc1nc(C2CC(N)C2)cc(N(C)Cc2sccc2C)n1 (stereo not drawn),-17%
CCc1c(C(=O)N2CCc3c(c(C(=O)O)nn3CC3CC3)C2)csc1C,-4%
COc1ccc(CN2CCC3(CC(Cc4ccccc4)=NO3)C2)cc1 (stereo not drawn),4%
CC(Oc1ccccc1)C(=O)N1CCN(c2cc(C(F)(F)F)ncn2)CC1 (stereo not drawn),-16%
O=C(NCC1CCCN(C(=O)c2ccsc2)C1)c1ccc(-c2ccccc2)cc1 (stereo not drawn),?
Cc1cccc(CN(C(=O)c2ccco2)c2ccc(CC(=O)N(C)Cc3ccccc3)cc2)c1,-16%
CC(=O)N1CCCC(c2nn(-c3cccc(Cl)c3)c(=O)[nH]2)C1 (stereo not drawn),5%[70.6 µM]
CCC(C)NC(=O)C(NC(=O)c1cccs1)C1CCN(C(=O)c2cccs2)CC1 (stereo not drawn),-8%
O=C(c1c(OCC2CC2)cc(=O)n2c1CCOCC2)N1CCc2ccccc2C1,-22%
CNC(=O)[C@@H](Cc1ccccc1)N1CCC[C@H]1C(=O)N1CCC1,-8%[70.6 µM]
Cc1cccc(N(C)C(=O)CN2C(=O)NC3(CCOCC3)C2=O)c1,2%
Cc1c(O)cccc1C(=O)N1CC[C@@H](NC(=O)c2ccccn2)[C@H](O)C1,-9%
COc1cccc(C(=O)N2CCC(c3n[nH]c(=O)n3Cc3ccc(F)cc3)CC2)c1,2%
COc1ccc(-c2cc(CC3(NCc4ccccc4O)COC3)no2)cc1,-18%[70.6 µM]
Cc1nnc2n1CCC(N(C)C(=O)c1cncc(Br)c1)CC2 (stereo not drawn),2%
CCc1ccccc1NC(=O)N(C)CC1CCOC1 (stereo not drawn),-3%
Cc1nc(-c2ccccc2)n(CC(=O)Nc2cccc(Cl)c2)c(=O)c1CCO,?
Cc1cc(C)cc(C(=O)N2CCC(Oc3ccc(C(=O)N(C)C)cn3)CC2)c1,-5%
COc1cccc(CN2CC3(CCN(C(=O)CSC(C)C)CC3)CC2=O)c1,5%
COc1cc2c(cc1OC)C(C[C@H]1CN(C(=O)Nc3cccc(Cl)c3)CC[C@H]1CC(=O)O)=NCC2,3%
COC(=O)CN1C(=O)[C@@H]2C[C@@H](O)CN2C2(CN(C3CCN(C(C)=O)CC3)C2)C1=O,9%[70.6 µM]
COc1ccc(NC(=O)c2ccc3c(c2)C2(CCN(C)C2)CN3CC2CC2)cc1 (stereo not drawn),-5%[70.6 µM]
COc1ccc(C(=O)N2CCC3(CC2)OC(=O)N(Cc2ccccc2F)C3(C)c2ccccc2)cn1 (stereo not drawn),-4%

# Some of these compounds in order of the NPR1 antag value, high to low.
SMILES,NPR1 antag
COc1cccc(CN2CC3(CCN(C(=O)CSC(C)C)CC3)CC2=O)c1,5%
COc1cc2c(cc1OC)C(C[C@H]1CN(C(=O)Nc3cccc(Cl)c3)CC[C@H]1CC(=O)O)=NCC2,3%
Cc1cccc(N(C)C(=O)CN2C(=O)NC3(CCOCC3)C2=O)c1,2%
CCc1ccccc1NC(=O)N(C)CC1CCOC1 (stereo not drawn),-3%
COc1ccc(C(=O)N2CCC3(CC2)OC(=O)N(Cc2ccccc2F)C3(C)c2ccccc2)cn1 (stereo not drawn),-4%
Cc1cc(C)cc(C(=O)N2CCC(Oc3ccc(C(=O)N(C)C)cn3)CC2)c1,-5%

# Taken from above:
# Under NPR1 antag, `COc1cc2c(cc1OC)C(C[C@H]1CN(C(=O)Nc3cccc(Cl)c3)CC[C@H]1CC(=O)O)=NCC2` has the entry 3%
# Under NPR1 antag, `Cc1c(O)cccc1C(=O)N1CC[C@@H](NC(=O)c2ccccn2)[C@H](O)C1` has the entry -9%
# Under NPR1 antag, `COC(=O)CN1C(=O)[C@@H]2C[C@@H](O)CN2C2(CN(C3CCN(C(C)=O)CC3)C2)C1=O` has the entry 9%[70.6 µM]
# Under NPR1 antag, `CNC(=O)[C@@H](Cc1ccccc1)N1CCC[C@H]1C(=O)N1CCC1` has the entry -8%[70.6 µM]

# (list continues)
SMILES,NPR1 antag
CC(C)Oc1ccc(CN2CCC(C)(c3noc(C4CCOCC4)n3)CC2)cc1,1%
COc1ccc(C(=O)N2CCc3c(nc4cc[nH]n4c3=O)C2)c(C)c1,-1%
CCC1c2nccn2CCCN1C(=O)Cn1cccn1 (stereo not drawn),-8%
CCc1ccc(CN2C[C@@H]3C(=O)N(CCOC)C(=O)[C@@H]3C2)cc1,0%
Cc1nc2cc(S(=O)(=O)N3CCOCC3)ccc2n1CCNC(=O)C1CC1,8%
O=C(NCCc1ccco1)C1CC(=O)N(c2n[nH]c3cc(Br)ccc23)C1 (stereo not drawn),4%
Cc1occc1C(=O)N1CCC(N2CCCC(C(=O)NCc3ccccn3)C2)CC1 (stereo not drawn),3%
COc1cccc(CN2CCCC(O)(CN3CCC4(CC3)OCCO4)C2=O)c1 (stereo not drawn),0%
COc1ccc(-c2cc(N3CCCN(C(=O)c4ccc5nc[nH]c5c4)CC3)n[nH]2)cc1,-3%
O=C1CCN(S(=O)(=O)c2cccs2)CCCCCCN1,6%
O=C(N1CCCC(Cc2nc(C3CCOCC3)no2)C1)C1(c2ccccc2)CC1 (stereo not drawn),-1%
Cc1cc2nc(CO[C@H]3CN(C4CCN(C)CC4)C[C@H]3F)[nH]c2cc1C,7%[70.6 µM]
CC(C)c1noc(-c2cn(C3CCCN(C(=O)c4ccncc4)C3)nn2)n1 (stereo not drawn),1%
COc1ccccc1-c1cnc(Nc2cccnc2)c2c1CCO2,?
CCOc1cccc(CN2C[C@@H]3C(=O)N(CCN4CCc5ccccc5C4)C(=O)[C@@H]3C2)c1,-15%
COCc1cc(C[C@@H]2CC[C@H](O)[C@@H](CN(C(=O)Nc3ccccc3OC)C(=O)Nc3ccccc3OC)O2)no1,-2%
Cc1ncccc1C(=O)N1CCC2(CC1)CC(N(Cc1ccccc1)C1CC1)CCO2 (stereo not drawn),-30%
COc1ccc(C(=O)N2CCC(n3c(C)cnc3-c3ccccc3)CC2)c(OC)c1,2%
COc1ccc(CNC(=O)c2noc(-c3ccc(F)cc3)n2)c(OC)c1,2%
O=C1CCN(S(=O)(=O)c2ccccc2)CCCN(C2CCOCC2)CCN1,3%
CC(c1cccs1)N(C)Cc1ccc(N(C)C)cc1 (stereo not drawn),-4%[70.6 µM]
Cc1ccc(C(=O)N2CCC(c3noc(C4CC4)n3)C2)cn1 (stereo not drawn),2%
Cc1cc(C)n(Cc2cccc(C(=O)N[C@@H]3CCNC[C@H]3O)c2)n1,8%
O=C(O)CC1COCCN1Cc1ccsc1 (stereo not drawn),4%
O=C(NC1CCN(c2cc(-c3cccs3)[nH]n2)CC1)c1cccc(OC(F)(F)F)c1,-1%
COCCOC1CCOC2(CCN(C(=O)c3cnccn3)CC2)C1 (stereo not drawn),-3%
COCCOC1CCOC2(CCN(C(=O)c3nn(C)c4ccccc34)CC2)C1 (stereo not drawn),-3%
Cc1ccc(-c2noc(-c3nc(Cc4ccccc4)no3)n2)cc1,-5%
CN1C(=O)N(C)C2(CCN(CCOc3ccc(F)cc3)C2)C1=O (stereo not drawn),0%
O=C(COc1ccc(F)cc1F)N1CCN(C(=O)C2CCCO2)CC1 (stereo not drawn),6%
COc1ccc(C2Cn3nnc(-c4nc(-c5ccc(C(F)(F)F)cc5)no4)c3CO2)cc1 (stereo not drawn),-2%
Cn1cccc1C(=O)N1C[C@@H](NC(=O)Nc2ccc(F)cc2F)C[C@H]1C(=O)N[C@H](Cc1c[nH]c2ccccc12)C(N)=O,0%
O=C1CCCN1CCCN1C(=O)[C@H]2CN(Cc3ccc(F)c(Cl)c3)C[C@H]2C1=O,0%
COc1cccc(S(=O)(=O)NCC(=O)N2CCCCCNC(=O)CC2c2ccccc2)c1 (stereo not drawn),4%
O=C(CN1C(=O)NC(c2ccc(Cl)cc2)C2=C1COC2=O)Nc1ccccc1 (stereo not drawn),-15%
COCCOc1cc(C)c2c(c1C)C[C@H]([C@H](C)C(=O)Nc1ccccn1)CC2,-4%[70.6 µM]
CCCc1nn(-c2ccccc2)c(=O)n1CC(=O)N(C)Cc1cnn(C)c1C,0%
CN(C)[C@@H]1CN(C(=O)c2ccc(F)cc2)CC[C@]1(O)c1ccccc1,-4%
O=C(COc1ccccc1)N[C@H]1[C@H](O)[C@H](O)C[C@@H]1c1ccc(C(F)(F)F)cc1,-15%[70.6 µM]
COc1ccc(C(=O)N2CCC(N3C[C@H](O)C[C@H]3C(=O)NCc3cccnc3)CC2)cn1,-9%
Cc1cccc(-n2nc(C)c(CCC(=O)NC3CC3)c2Oc2ccccc2C)c1,?
CC(C)(CC(=O)O)CC(=O)N[C@H]1CO[C@H]2[C@@H]1OC[C@@H]2n1nnnc1Oc1ccc(-n2cncn2)cc1,6%
Cc1nc([C@@H]2CN(C(=O)c3cc(C)n(Cc4ccco4)c3C)C[C@H]2C(N)=O)n[nH]1,9%
O=C(c1nc2sccn2c1Br)N1CCC(N2CCCCCC2=O)CC1,1%
COc1ccc2nc([C@H]3CCN(C4CCN(C)CC4)C3)[nH]c2c1,6%[70.6 µM]

# Exported with each value named: part of the list above
> O=C(COc1ccccc1)N[C@H]1[C@H](O)[C@H](O)C[C@@H]1c1ccc(C(F)(F)F)cc1
  NPR1 antag: -15%[70.6 µM]

> COc1ccc(C(=O)N2CCC(N3C[C@H](O)C[C@H]3C(=O)NCc3cccnc3)CC2)cn1
  NPR1 antag: -9%

> Cc1cccc(-n2nc(C)c(CCC(=O)NC3CC3)c2Oc2ccccc2C)c1
  NPR1 antag: ?
